# Cruzain Triton: cruzain (T. cruzi) inhibition with detergent; AID 1478; purified cruzain, Z-FR-AMC fluorescence, 0.01% Triton; 0.43% of 200,000 active; Potency, µM, without a hit: max response, negative = inhibition, usual class: inhibitors;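 also: plate controls were neutral wells for no effect and buffer without enzyme for full effect; nearly all actives have a fitted effect of over 40% in size; top concentration of the series not given in the record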
# Target sequence (P25779 123-467 limits assumed): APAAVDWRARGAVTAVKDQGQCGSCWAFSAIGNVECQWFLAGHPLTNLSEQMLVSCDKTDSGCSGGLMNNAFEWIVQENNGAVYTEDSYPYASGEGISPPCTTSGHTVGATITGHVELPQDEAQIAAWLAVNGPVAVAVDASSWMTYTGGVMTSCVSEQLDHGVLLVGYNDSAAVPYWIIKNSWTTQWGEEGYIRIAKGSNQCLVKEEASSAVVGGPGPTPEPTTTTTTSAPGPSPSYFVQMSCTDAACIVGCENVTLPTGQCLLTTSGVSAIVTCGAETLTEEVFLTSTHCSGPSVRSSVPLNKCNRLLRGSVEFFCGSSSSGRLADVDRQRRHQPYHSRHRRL
#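 Z-FR-AMC hydrolysis (2 uM substrate) by cruzain (1.5 nM) monitored kinetically at ex 360/em 450 nm after 15 min room-temperature compound exposure; 0.01% Triton X-100, pH 5.5, 5 mM DTT.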
# Cruzain inh noDet: cruzain (T. cruzi) inhibition without detergent; P25779; purified cruzain, Z-FR-AMC fluorescence, no detergent; Potency, µM, inactives show max response, negative = inhibition, usual class: inhibitors; 2.3% of 200,000 active; AID 1476;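 also: plate controls were enzyme without inhibitor for no effect and buffer without enzyme for full effect; nearly all actives have a fitted effect of over 40% in size; top concentration of the series not given in the record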
#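 Purified cruzain at 1.5 nM, pre-incubated 15 min with compound at room temperature in 100 mM sodium acetate pH 5.5, 5 mM DTT, 0.00005% Triton X-100. Reaction started with 2 uM Z-FR-AMC; AMC fluorescence increase over 60 s gives rate.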
# Numbers without * were called inactive; u = inconclusive. Calls follow the shape of the dose curve; as a rule, active = well fitted curve in the direction sought with a large enough effect; inconclusive = small, poorly fitted or top-dose-only effect, or another doubt; inactive = no such curve, though single readings can be large; an effect the other way counts as inactive or inconclusive. Potency is read from the fitted curve at half-maximal effect. Some of the compounds tested; rates above refer to the full screens.
SMILES,Cruzain Triton,Cruzain inh noDet
CCC[C@H]1C[C@H](C(=O)N[C@@H]([C@H]2O[C@@H](SC)[C@@H](O)[C@@H](O)[C@@H]2O)[C@H](C)Cl)N(C)C1,-3.2%,5%
CC/C=C/C/C=C/C/C=C/CCCCCCCC(=O)OCC,-4.8%,6%
C=CCN=C=S,2.6%,-10%
C[C@H](CCC(=O)O)[C@H]1CC[C@@H]2[C@H]3CC[C@H]4C[C@@H](O)CC[C@@]4(C)[C@H]3CC[C@]21C,-20%,7%
COc1ccc(-c2ccc(-c3cc(=O)oc4cc(C)cc(C)c34)cc2)cc1,0.1%,u
Oc1ccc(OCc2ccccc2)cc1,-0.5%,1%
CCCCCCCCc1[se]c2ccccc2c1I,2.2%,-10%
Nc1cc(S(=O)(=O)O)ccc1O,-1.7%,15%
S=C=S,1.1%,3%
C=COC(C)=O,2.4%,11%
O=C1CC(c2ccccc2O)Oc2ccc(O)cc21 (stereo not drawn),-3.4%,0%
O=C(O)CCC/C=C\C/C=C\C=C\[C@@H](O)C/C=C\CCCCCO,-0.7%,2%
O=C(NCC1CC1)[C@H]1C[C@@H]1[C@H](NP(=O)(c1ccccc1)c1ccccc1)c1ccccc1,-2.3%,4%
CC(Cl)Cl,-2.1%,-3%
CCCn1c(-c2ccc(F)cc2)nc2c(NC(C)CN(C)C)nc(C)nc21 (stereo not drawn),0.5%,-6%
CCC(=O)[C@@]1(C)[C@H](C)C[C@@H]2[C@@H]3CCC4=CC(=O)C=C[C@@]4(C)[C@H]3[C@H](O)C[C@]21C,-1.3%,-12%
COc1ccc(C2/C=C\CC(NC(=O)OCC3c4ccccc4-c4ccccc43)CC(=O)N2Cc2cccc(F)c2)cc1 (stereo not drawn),0.5%,u
ClCCCCl,3.1%,-1%
O=C1OC2(c3ccc(O)cc3Oc3cc(O)ccc32)c2ccccc21,-9.2%,-13%
COC(=O)[C@@]1(Cc2ccccc2)[C@H]2c3cc(C(=O)N(C)C)n(CCF)c3C[C@H]2CN1C(=O)c1ccccc1,0.6%,u

# Random excerpt: two entries already listed
SMILES,Cruzain Triton,Cruzain inh noDet
CC/C=C/C/C=C/C/C=C/CCCCCCCC(=O)OCC,-4.8%,6%
ClCCCCl,3.1%,-1%

# 15 successive records from above:
SMILES,Cruzain Triton,Cruzain inh noDet
CCC[C@H]1C[C@H](C(=O)N[C@@H]([C@H]2O[C@@H](SC)[C@@H](O)[C@@H](O)[C@@H]2O)[C@H](C)Cl)N(C)C1,-3.2%,5%
CC/C=C/C/C=C/C/C=C/CCCCCCCC(=O)OCC,-4.8%,6%
C=CCN=C=S,2.6%,-10%
C[C@H](CCC(=O)O)[C@H]1CC[C@@H]2[C@H]3CC[C@H]4C[C@@H](O)CC[C@@]4(C)[C@H]3CC[C@]21C,-20%,7%
COc1ccc(-c2ccc(-c3cc(=O)oc4cc(C)cc(C)c34)cc2)cc1,0.1%,u
Oc1ccc(OCc2ccccc2)cc1,-0.5%,1%
CCCCCCCCc1[se]c2ccccc2c1I,2.2%,-10%
Nc1cc(S(=O)(=O)O)ccc1O,-1.7%,15%
S=C=S,1.1%,3%
C=COC(C)=O,2.4%,11%
O=C1CC(c2ccccc2O)Oc2ccc(O)cc21 (stereo not drawn),-3.4%,0%
O=C(O)CCC/C=C\C/C=C\C=C\[C@@H](O)C/C=C\CCCCCO,-0.7%,2%
O=C(NCC1CC1)[C@H]1C[C@@H]1[C@H](NP(=O)(c1ccccc1)c1ccccc1)c1ccccc1,-2.3%,4%
CC(Cl)Cl,-2.1%,-3%
CCCn1c(-c2ccc(F)cc2)nc2c(NC(C)CN(C)C)nc(C)nc21 (stereo not drawn),0.5%,-6%

# Going on with the list.
SMILES,Cruzain Triton,Cruzain inh noDet
CCC(=C(CC)c1ccc(O)cc1)c1ccc(O)cc1,-6.7%,-6%
COc1ccc2nc3c(cc2c1)Cc1ccccc1-3,-3.9%,14%
CCCCC/C=C\C/C=C\C[C@H](O)/C=C/C=C\CCCC(=O)O,1.0%,-12%
CC(C)[C@H]1COC(c2cccc([N+](=O)[O-])c2)=N1,0.6%,-2%
FC(F)(F)c1cccc(-c2noc(-c3cc(-c4ccccc4)c(C(F)(F)F)s3)n2)c1,0.0%,0%
CCOC(=O)C1=C(C(=O)OCC)C(C(=O)OCC)N(S(=O)(=O)C(F)(F)F)c2ccccc21 (stereo not drawn),2.3%,4%
CC(=O)O[C@H]1[C@H]2[C@@H](OC(=O)Cc3ccccc3)[C@@H](C)C[C@]2(OC(C)=O)C(=O)/C(C)=C/[C@@H]2[C@H](CC[C@@]13CO3)C2(C)C,-3.0%,u
CC1=C(/C=C/C(C)=C/C=C/C(C)=C\C=O)C(C)(C)CCC1,-6.5%,u
CC1(C)CC=C(O[Si](C)(c2ccccc2)c2ccccc2)CC1,0.5%,1%
COc1ccc(S(=O)(=O)N(CCO)c2ccccc2CN(C)CC=Cc2ccc(Cl)cc2)cc1,-0.8%,u
CC(C)[C@@H](CC(=O)N[C@@H]1CCCC[C@H]1C(=O)N[C@H](CC(=O)N[C@@H](CCC(=O)O)CC(=O)O)Cc1c[nH]c2ccccc12)NC(=O)C[C@H](Cc1ccccc1)NC(=O)[C@@H]1CNCC[C@H]1N,0.4%,-2%
CC(C)C[C@@H](CC(=O)N[C@@H](CCC(=O)O)CC(=O)O)NC(=O)[C@@H]1CCCC[C@H]1NC(=O)C[C@H](CCCN)NC(=O)C[C@H](Cc1c[nH]c2ccccc12)NC(=O)[C@@H]1CCCC[C@H]1N,-2.4%,19%
COC(=O)c1ccc2c(c1)c(I)c(-c1ccc(OC)cc1)n2C,2.5%,u
COC(=O)[C@@H]1C[C@@]2(O)[C@@H](O)[C@@H](O)[C@@H](O)C[C@H]2N1Cc1cccnc1,1.4%,-9%
COC/C=C/C1=CC2=CC(=O)C(C)(OC(=O)CCc3ccccc3)C(=O)C2=CO1 (stereo not drawn),1.8%,2%
O=C(OC[C@@H]1O[C@@](O)(COC(=O)c2cccnc2)[C@H](OC(=O)c2cccnc2)[C@H]1OC(=O)c1cccnc1)c1cccnc1,0.9%,13%
CCCCCCCCCCCCCCCC(=O)OCC(NC(=O)C(Cl)Cl)C(O)c1ccc([N+](=O)[O-])cc1 (stereo not drawn),3.0%,-13%
CC(C)c1ccccc1S(=O)(=O)c1cc(N)c2ncccc2c1[N+](=O)[O-],-9.0%,-23%
NCCNCCNCCNCCN,2.1%,-4%
COC(=O)[C@@H]1C[C@H]1[C@@H](NC(=O)c1cc(C)nn1C)c1ccccc1,-2.5%,-2%
Cc1onc(-c2c(F)cccc2Cl)c1C(=O)N[C@H]1C(=O)N2[C@H]1SC(C)(C)[C@H]2C(=O)O,0.7%,-12%
CCCCC[C@H](O)/C=C/[C@@H]1[C@@H](CC(=O)CCC(=O)O)[C@@H](O)C[C@H]1O,3.0%,-15%
CS(=O)(=O)c1ccc(CNC(=O)[C@@H]2C[C@H]2[C@@H](NP(=O)(c2ccccc2)c2ccccc2)c2ccccc2)cc1,7.6%,14%
CCCC[C@@H]1C[C@H]1C(NC(=O)c1ccccc1)c1ccc(C(F)(F)F)cc1 (stereo partly drawn),-2.5%,-12%
COc1ccc(C(=O)Nc2ccccc2)cc1[N+](=O)[O-],-5.0%,-3%
COC(=O)[C@@]1(C)C=C[C@@H](Cc2ccccc2)N1C(C)=O,-1.0%,-2%
CCOC(=O)CNC(=O)O[C@@H]1C(=O)c2cc(Br)ccc2O[C@H]1c1ccc2c(c1)OCO2,1.7%,-6%
CCOC(=O)O[C@]1(C(=O)COC(=O)CC)CC[C@@H]2[C@@H]3CCC4=CC(=O)C=C[C@@]4(C)[C@H]3[C@H](O)C[C@]21C,2.0%,u
C1CCC2OC2C1 (stereo not drawn),2.5%,-11%
C=CCOC[C@@H]1CN2[C@H](c3ccc(Br)cc3)[C@@H](C)CC[C@H]2C(=O)O1,0.5%,8%
O=C(O)c1ccccc1Cl,0.7%,9%
O=[N+]([O-])c1ccc2c3c(cccc13)CC2,-7.5%,-1%
C=CCN1C(=CCO)[C@H]2C[C@H]3[C@@H]1CC[C@@]31c3ccccc3N3C=C4[C@@H]5N(/C=C/2[C@H]31)c1ccccc1[C@]51CC[C@H]2[C@H]1C[C@@H]4/C(=C/CO)N2CC=C,-7.9%,-17%
CO[C@@H]1c2cc(F)ccc2/C(=C\CCOC(=O)C/C=C/c2ccccc2)[C@H]1C,0.5%,6%
C=C1CC[C@@H]2O[C@@]2(C)CC[C@H]2[C@H]1CC2(C)C,0.4%,u
C[C@@H](O)C#C[Si](C)(C)c1ccccc1,1.8%,3%
C=CCCCCCC,3.6%,4%
COc1ccc2c(c1)C(=O)[C@H](OC(=O)NS(=O)(=O)c1ccc(C)cc1)[C@@H](c1ccc(OC)c(Br)c1)O2,-1.4%,0%
CCC1=C2CC[C@H]3C(=O)NC(=O)[C@H]3[C@H]2[C@@]2(Cc3ccccc3)C(=NCc3ccccc3)OC(=O)N2C1=O,1.9%,4%
Cc1cccc(N)c1C,1.6%,7%
O[C@@](CCN1CCCCC1)(c1ccccc1)[C@@H]1C[C@H]2C=C[C@@H]1C2,-2.9%,7%
COCCN(CCOC)c1nc(C)nc2c1nc(-c1ccccc1)n2CCN(C)C,-1.8%,2%
CCN1C[C@@]2(COC)C3[C@@H](OC)C4[C@@H]1[C@@]3(C1C[C@@]3(O)[C@H](OC(=O)c5ccccc5)C1[C@]4(OC(C)=O)[C@@H](O)[C@@H]3OC)[C@@H](OC)C[C@H]2O (stereo partly drawn),-1.9%,2%
CC[C@@H]1OC(=O)[C@H](C)[C@H](O[C@@H]2C[C@](C)(OC)[C@H](O)[C@H](C)O2)[C@H](C)[C@H](O[C@@H]2O[C@@H](C)C[C@@H](N(C)C)[C@@H]2O)[C@](C)(O)C[C@H](C)[C@@H]2N[C@H](COCCOC)O[C@H]([C@@H]2C)[C@]1(C)O,-0.2%,-5%
CNc1ccc(C(=O)CC(O)CCC(C)C2OC(=O)CC(O)CC(=O)CC(O)CC(O)CC(O)CC(O)CC3(O)CC(O)C(C(=O)OC)C(CC(O[C@@H]4OC(C)C(O)C(N)C4O)/C=C/C=C/C=C/C=C/C=C/C=C/C=C/C2C)O3)cc1 (stereo partly drawn),-9.2%,23%
CC(=O)OCC1C2CC[C@H]3C(OCc4ccc(F)cc4C(F)(F)F)OC[C@]4(C)[C@H]3C2=C(CN4C(=O)OC(C)(C)C)[C@H](C)C1COC(C)=O (stereo partly drawn),-5.0%,7%
Cc1ccc(C)c(-c2ccc(C(=O)O)o2)c1,8.0%,4%
N#CC(Cl)Cl,-6.3%,-11%
CC(C)OC(=O)[C@@H]1CC[C@H](C)[C@@H](CCCC=O)O1,2.0%,-11%
O=S(=O)(CCc1ccccc1)c1nc2ccccc2s1,0.3%,-1%
Cc1nc(NC2CCCCC2)c2nc(-c3ccccc3)n(CCCN3CCOCC3)c2n1,-15%,-4%
CCCCCCCc1cc2c(cn1)=C(OC)C(C)(OC(C)=O)C(=O)C=2Cl (stereo not drawn),-2.4%,-9%
CCCn1c(C)nc2c(Nc3ccccc3)nc(C)nc21,-5.4%,-2%
COC1OC2COC(c3ccccc3)OC2C(O)C1O (stereo not drawn),-2.3%,6%
COC(=O)CCCCCN1C(=O)NC(CC2CC2)C(C(=O)OCc2ccccc2)=C1C (stereo not drawn),-8.0%,1%
CC(=O)O[C@H]1C[C@H]2CC[C@@H]3[C@@H](CC[C@]4(C)[C@H](OC(C)=O)[C@H]([N+]5(C)CCCCC5)C[C@@H]34)[C@]2(C)C[C@H]1[N+]1(C)CCCCC1,-0.6%,-14%
C[C@@H](C(=O)Nc1ccc2ccccc2c1)[C@@H]1C[C@@]1(C)[C@@H](NS(=O)(=O)c1ccc(-c2ccccc2)cc1)c1ccccc1,1.3%,3.2µM*
C#CCOC(=O)NC(/C=C/CCCC)c1ccccc1 (stereo not drawn),1.0%,-4%
COC(=O)C(C(=O)OC)[C@@H]1O[C@@]23COC=C[C@]2(C)[C@H]3c2ccccc21,3.7%,-5%
Oc1ccccc1,1.5%,-9%

# Following part
SMILES,Cruzain Triton,Cruzain inh noDet
CCCCCCCCOC(=O)c1ccccc1C(=O)OCCCCCCCC,9.8%,15%
CC(C=O)Cc1ccc(C(C)(C)C)cc1 (stereo not drawn),3.1%,-1%
CCCCC(CC)CNCC(CC)CCCC (stereo not drawn),5.0%,-4%
C#C[C@]1(O)CC[C@H]2[C@@H]3CCC4=CC(=O)CCC4(C)[C@H]3CCC21C (stereo partly drawn),-0.2%,-4%
CCO[C@H]1O[C@@H]([C@H](COCc2ccccc2)OCc2ccccc2)[C@@H](OCc2ccccc2)[C@H]1O,-6.2%,u
Cc1ccc(CNC(=O)[C@H]2C[C@@H]2[C@H](NP(=O)(c2ccccc2)c2ccccc2)c2ccccc2)c(F)c1F,3.0%,-8%
CC(C)(C)CC(C)(C)c1ccc(OCCO)cc1,5.1%,u

# Compound activity deposited in PubChem BioAssay by National Center for Advancing Translational Sciences (NCATS).
